PKD1 inh: inhibitors of human PKD1 kinase. actives 0.056% (n = 200,000). Q15139. AID 797. PKD1 kinase fluorescence polarization assay. inhibition, %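 (about 10 µM by stock and volumes)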;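 active means inhibition of 50% or more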;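 further: controls were vehicle for no effect and a reference inhibitor for full effect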
Target sequence (Q15139 whole entry, looked up): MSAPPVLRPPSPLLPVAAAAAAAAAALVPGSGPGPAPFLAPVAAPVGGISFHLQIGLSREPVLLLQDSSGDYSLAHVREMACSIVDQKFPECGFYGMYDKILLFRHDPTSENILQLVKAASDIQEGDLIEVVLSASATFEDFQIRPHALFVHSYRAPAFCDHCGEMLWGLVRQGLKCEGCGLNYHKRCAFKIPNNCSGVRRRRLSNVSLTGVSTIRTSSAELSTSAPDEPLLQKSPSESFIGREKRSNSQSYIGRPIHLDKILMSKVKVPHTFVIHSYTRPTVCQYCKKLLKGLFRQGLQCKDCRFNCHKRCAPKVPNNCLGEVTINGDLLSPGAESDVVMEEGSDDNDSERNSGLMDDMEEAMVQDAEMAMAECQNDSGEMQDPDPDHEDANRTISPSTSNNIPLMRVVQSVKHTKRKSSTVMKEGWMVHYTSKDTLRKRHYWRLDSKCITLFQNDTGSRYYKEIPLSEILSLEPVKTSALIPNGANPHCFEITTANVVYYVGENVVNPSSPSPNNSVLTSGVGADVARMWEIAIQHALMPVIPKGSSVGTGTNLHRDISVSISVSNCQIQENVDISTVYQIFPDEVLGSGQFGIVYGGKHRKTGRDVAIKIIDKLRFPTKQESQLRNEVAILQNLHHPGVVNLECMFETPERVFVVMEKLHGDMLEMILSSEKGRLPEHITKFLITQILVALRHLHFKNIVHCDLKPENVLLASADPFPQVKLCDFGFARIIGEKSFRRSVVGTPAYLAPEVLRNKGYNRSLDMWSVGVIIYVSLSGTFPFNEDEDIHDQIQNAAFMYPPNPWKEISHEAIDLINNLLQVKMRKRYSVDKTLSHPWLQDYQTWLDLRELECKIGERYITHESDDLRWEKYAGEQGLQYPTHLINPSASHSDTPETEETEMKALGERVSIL
HSV augment: HSV replication enhancement; HSV replication augmentation in cells, fold increase; maximum fold increase; actives 0.005% (n = 220,000); AID 1956;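 active means peak rise of 1.5-fold or more in the series; inconclusive means self-fluorescent or not available for retest; tested in PC3 cells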;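 further: first round at 10 µM; read as green reporter fluorescence; hits show the peak of a series up to 25 µM; 1 = signal of infected wells without compound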
GALR2 ag: activates the human galanin receptor 2. AID 803. GALR2-expressing cells, agonist activation read-out. activation, %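 (tested at 5 µM)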. actives 0.48% (n = 140,000). O43603;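 active means above mean plus 3 SD of all compounds, about 5% in these data, not always enough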;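 further: 0% = vehicle buffer wells and 100% = reference agonist at full effect; tested in CHO reporter cells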
Insulin prom inh: TRM-6 insulin promoter activity inhibition | TRM-6 cells (human fetal islet line), insulin promoter-eGFP reporter, imaging; reporter expression induced with tamoxifen | inhibition, % at 2 µM | AID 1273 | actives 0.9% (n = 130,000);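 active means inhibition above the mean plus 3 SD, with well images judged a real hit on visual review, cut at about 60% in these data, passing the limit was not always enough; inconclusive means inhibition over the cutoff but images rejected on review; inactive means inhibition not above the cutoff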
RGS16-Gao: regulators of human RGS16-Galphao interaction; bead-based flow cytometry RGS16-Galphao binding, fluorescence; actives lie on both sides; actives 0.38% (n = 220,000); binding response (% of control), % at 10 µM; O15492+P09471; AID 1441;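 active means below 25% or above 175%, edge rows of some plates excepted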;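 further: Galphao activated by GDP with aluminum fluoride before binding; 100% = wells without compound and 0% = beads without RGS; some results beyond the cut were filed as inactive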
Insulin prom inh cell count: also measured in Insulin prom inh; calls as there; normalized cell count, %; measured here: cell count, toxicity; reference of the scale not given here;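 cells exposed to compound for 48 h; stained nuclei by imaging scaled within each plate; lower means fewer cells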
HSV augment primary fold: second read-out of HSV augment, no call of its own (marks repeat the call); fold increase; compound at 10 µM; measured here: primary screen fold increase 10 uM; tested in PC3 cells;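 GFP signal in the first replicate; 1 = infected wells without compound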
The depositor's hits bear a star; i = inactive; ? = inconclusive; / = not tested or not shown.

SMILES	PKD1 inh	HSV augment	HSV augment primary fold	GALR2 ag	Insulin prom inh	Insulin prom inh cell count	RGS16-Gao
Cc1ccc(/C=N/NC(=O)C2(C)CC2(Br)Br)cc1 (stereo not given)	-4	i	0.84	/	57	109	102
Cc1ccc(NNc2c(C)nc3ccccc3nc2=O)cc1	-7	i	1.2	/	/	/	102
O=C(Nc1ccccc1Cl)c1csc(-c2cccnc2)n1	/	i	1.2	/	/	/	99
Cc1c(S(=O)(=O)N2CCN(C(=O)c3ccco3)CC2)c(=O)n(C)c(=O)n1C	-10	i	1	-3.5	/	/	104
Cc1sc2ncnc(NCC3COc4ccccc4O3)c2c1C (stereo not given)	10	i	0.97	-0.3	/	/	97
Cc1ccc(S(=O)(=O)/N=c2\ccc(Cl)cn2C(F)F)cc1	3	i	0.94	/	6	58	101
COc1ccccc1N1CCN(C(=O)CN2C(=O)c3cccc4cccc(c34)C2=O)CC1	4	i	0.91	/	/	/	100
O=C(O)c1ccc(NS(=O)(=O)c2cccc3cccnc23)cc1	2	i	1	-2.0	/	/	108
CCC(CC)C(=O)Oc1c(Sc2ccccc2[N+](=O)[O-])c(C)nn1C(C)(C)C	-22	/	/	0.6	/	/	105
Cc1nc(SCC(=O)c2cccc([N+](=O)[O-])c2)n[nH]1	-6	i	1.1	-1.4	-26	76	100
O=C(CSc1nc2ccccc2c(=O)n1Cc1ccccc1)NCc1ccco1	-10	i	0.93	-0.1	28	50	127
COc1cccc(Nc2cc(N3CCOCC3)c3nonc3c2[N+](=O)[O-])c1	-5	i	1.1	-1.3	/	/	103
COc1ccc(C(=O)NCCSc2ccc(C)cc2)cc1	-4	i	0.95	-0.9	-30	110	104
O=C(NCC1CCCO1)c1ccc(CSCc2cccc(F)c2)o1 (stereo not given)	2	i	0.87	/	-36	96	98
Cc1nnc(NC(=O)c2ccccc2F)s1	3	i	0.89	-2.2	/	/	101
O=C(N/N=C/c1cc([N+](=O)[O-])ccc1O)Nc1ccccc1	3	i	1	/	/	/	98
Cc1cc(C)cc(SCc2noc(C(=O)NC(C)C)c2C(=O)O)c1	-9	i	0.9	-3.4	27	156	77
CC(C)CC(NC(=O)c1ccco1)C(=O)Nc1ccc2c(c1)OCCO2 (stereo not given)	-3	i	1.4	-0.5	/	/	90
CN1C(=O)C(O)(c2nnc(-c3ccccc3)o2)c2ccccc21 (stereo not given)	2	i	0.89	/	-21	138	105
CC(C)CNC(=S)NNC(=O)c1csc2c1CCC(C)C2 (stereo not given)	-2	i	0.85	-2.5	10	63	106
CC1CCc2nn(CC(=O)NC3CCCC(C)C3C)cc2C1 (stereo not given)	-4	i	0.95	-1.7	/	/	100
NC(=O)c1cc[n+](CC(=O)c2ccc(NC(=O)c3ccccc3)cc2)cc1	-4	i	0.95	/	/	/	102
Cc1cc(-c2ccc(Br)cc2)n[nH]1	5	i	1.1	/	-12	146	103
COc1ccc(CCNc2c3ccccc3nc3ccccc23)cc1OC	/	i	0.59	/	/	/	99
CCC(=O)Nc1ccc(NC(=O)CSc2nnc(C(C)C)n2C)cc1	5	?	/	-1.8	8	108	99
CC(C)(C)C(=O)Nc1nnc(CSCc2ccccc2F)s1	2	i	0.88	-3.9	-9	225	98
O=C(NCCCN1CCN(c2cccc(Cl)c2)CC1)c1cccc(N2CCCC2=O)c1	-2	i	0.91	-1.8	-45	141	103
CCc1noc(C)c1C(=O)N1CCCC(CCC(=O)NCc2cccc(OC)c2)C1 (stereo not given)	6	i	1	/	/	/	115
COc1cc(NC(=O)C2CC2)c(C(=O)O)cc1OC	-12	i	0.8	-1.5	56	86	97
CC(=O)Nc1ccc(S(=O)(=O)Nc2nc3ccccc3nc2Nc2ccc(N)cc2)cc1	/	?	/	/	/	/	103
O=C(Nc1ccccc1)N1CCC(c2ccccc2)C1 (stereo not given)	7	i	1	-0.3	/	/	98
O=C(COC(=O)c1cccs1)c1ccc2ccccc2c1	3	i	0.85	-4.2	7	142	107
O=C(NCC(=O)N(c1cccc(F)c1)C(C(=O)NC1CCCC1)c1ccco1)c1ccco1 (stereo not given)	-7	i	1	/	20	53	47
CC12c3ccccc3C(c3ccccc31)C1C(=O)N(Cc3cccnc3)C(=O)[C@H]12 (stereo not given in full)	-11	i	0.9	0.0	/	/	101
Cc1ccc(C(CC(=O)N2CCCC2)c2ccccc2)c(O)c1C (stereo not given)	-7	i	0.92	0.7	/	/	105
C[C@@H](C(=O)Nc1cccc(S(=O)(=O)N2CCOCC2)c1)N1C(=O)C2CC=CCC2C1=O (stereo not given in full)	-7	i	1.1	/	32	107	100
OCc1ccccc1N=c1ssnc1Cl	-8	i	0.98	-3.0	36	136	72
COc1ccccc1OCC(=O)NCCc1nc2ccccc2[nH]1	3	i	1.1	1.9	-86	58	94
Cc1cccc2cc(CN(Cc3ccc(F)cc3)C(=O)N3CCOCC3)c(=O)[nH]c12	4	i	0.83	-0.9	20	109	62
CCOC(=O)c1oc2ccccc2c1NC(=O)COc1ccc(F)cc1	-4	/	/	-2.7	/	/	98
O=C(NCc1ccco1)c1ccc2c(c1)C(=O)N(C1CCCCC1)C2=O	0	i	0.78	-1.6	-3	84	99
Cc1cccc(-n2nc(CC#N)c(C#N)c2N)c1	-9	i	1.4	/	/	/	103
Cn1c(=NC(=O)c2ccc3c(c2)OCCO3)sc2cc(S(C)(=O)=O)ccc21	-1	/	/	/	57	64	82
N=C1S/C(=C\c2ccccc2)C(=O)N1c1ccc(F)cc1	-1	i	1	0.1	-15	115	105
O=C(CSc1nnc(CN2CCOCC2)n1-c1ccc(Cl)cc1)Nc1ccc2c(c1)OCO2	-10	i	0.95	-0.2	-60	146	99
COc1cccc(C2=NOC(C(=O)Nc3cccc(C(C)=O)c3)C2)c1 (stereo not given)	-9	i	0.89	-1.6	-27	86	98
O=C(CSCc1ccc(F)cc1)NC1CCCC1	-8	i	0.92	-1.1	-57	99	116
CCN(CC)CCCNC(=O)CCC(=O)Nc1ccc2nc(N3CCCCC3)cc(C)c2c1	-2	i	0.9	/	/	/	100
CCS(=O)(=O)c1nc2ccccc2n1Cc1ccccc1Cl	-12	i	0.98	-0.7	/	/	86
O=C(Cc1cccs1)Nc1nnc(-c2ccc(F)cc2)s1	-3	i	0.96	/	-5	61	92

Given in markdown: 18 of the compounds above
| Compound | PKD1 inh | HSV augment | HSV augment primary fold | GALR2 ag | Insulin prom inh | Insulin prom inh cell count | RGS16-Gao |
| --- | --- | --- | --- | --- | --- | --- | --- |
| O=C(NCC(=O)N(c1cccc(F)c1)C(C(=O)NC1CCCC1)c1ccco1)c1ccco1 (stereo not given) | -7 | i | 1 | / | 20 | 53 | 47 |
| CC12c3ccccc3C(c3ccccc31)C1C(=O)N(Cc3cccnc3)C(=O)[C@H]12 (stereo not given in full) | -11 | i | 0.9 | 0.0 | / | / | 101 |
| Cc1ccc(C(CC(=O)N2CCCC2)c2ccccc2)c(O)c1C (stereo not given) | -7 | i | 0.92 | 0.7 | / | / | 105 |
| C[C@@H](C(=O)Nc1cccc(S(=O)(=O)N2CCOCC2)c1)N1C(=O)C2CC=CCC2C1=O (stereo not given in full) | -7 | i | 1.1 | / | 32 | 107 | 100 |
| OCc1ccccc1N=c1ssnc1Cl | -8 | i | 0.98 | -3.0 | 36 | 136 | 72 |
| COc1ccccc1OCC(=O)NCCc1nc2ccccc2[nH]1 | 3 | i | 1.1 | 1.9 | -86 | 58 | 94 |
| Cc1cccc2cc(CN(Cc3ccc(F)cc3)C(=O)N3CCOCC3)c(=O)[nH]c12 | 4 | i | 0.83 | -0.9 | 20 | 109 | 62 |
| CCOC(=O)c1oc2ccccc2c1NC(=O)COc1ccc(F)cc1 | -4 | / | / | -2.7 | / | / | 98 |
| O=C(NCc1ccco1)c1ccc2c(c1)C(=O)N(C1CCCCC1)C2=O | 0 | i | 0.78 | -1.6 | -3 | 84 | 99 |
| Cc1cccc(-n2nc(CC#N)c(C#N)c2N)c1 | -9 | i | 1.4 | / | / | / | 103 |
| Cn1c(=NC(=O)c2ccc3c(c2)OCCO3)sc2cc(S(C)(=O)=O)ccc21 | -1 | / | / | / | 57 | 64 | 82 |
| N=C1S/C(=C\c2ccccc2)C(=O)N1c1ccc(F)cc1 | -1 | i | 1 | 0.1 | -15 | 115 | 105 |
| O=C(CSc1nnc(CN2CCOCC2)n1-c1ccc(Cl)cc1)Nc1ccc2c(c1)OCO2 | -10 | i | 0.95 | -0.2 | -60 | 146 | 99 |
| COc1cccc(C2=NOC(C(=O)Nc3cccc(C(C)=O)c3)C2)c1 (stereo not given) | -9 | i | 0.89 | -1.6 | -27 | 86 | 98 |
| O=C(CSCc1ccc(F)cc1)NC1CCCC1 | -8 | i | 0.92 | -1.1 | -57 | 99 | 116 |
| CCN(CC)CCCNC(=O)CCC(=O)Nc1ccc2nc(N3CCCCC3)cc(C)c2c1 | -2 | i | 0.9 | / | / | / | 100 |
| CCS(=O)(=O)c1nc2ccccc2n1Cc1ccccc1Cl | -12 | i | 0.98 | -0.7 | / | / | 86 |
| O=C(Cc1cccs1)Nc1nnc(-c2ccc(F)cc2)s1 | -3 | i | 0.96 | / | -5 | 61 | 92 |

(list continues)
SMILES	PKD1 inh	HSV augment	HSV augment primary fold	GALR2 ag	Insulin prom inh	Insulin prom inh cell count	RGS16-Gao
O=C1CS/C(=N/N=C/c2ccco2)N1Cc1ccc(F)cc1	/	i	0.93	/	/	/	98
COC(=O)C1=C(C)N(C)C(=S)NC1c1cc(OC)ccc1OC (stereo not given)	-6	i	0.96	/	/	/	96
O=C(CCCSc1nc2ccccc2[nH]1)NC1CCCCC1	-1	i	1	/	-25	83	177
COc1ccc(NC(=O)N2CCC(n3cnc4ccccc43)CC2)cc1	-2	i	0.94	/	/	/	101
COc1ccccc1Nc1nc(N)nc(CSCCO)n1	-6	i	0.87	1.6	-25	52	65
Cc1c(NC(=O)c2cc(-c3ccccc3O)on2)c(=O)n(-c2ccccc2)n1C	/	i	0.56	/	/	/	103
CCOC(=O)Cn1c2c(c(=N)c3c1CCC3)CCC2	-8	i	0.91	0.0	18	186	101
COc1ccc(CCNc2cn[nH]c(=O)c2Cl)cc1OC	3	i	0.91	/	/	/	95
COc1cccc(C(=O)Nc2ccc(-n3nncc3C(C)(C)C)cc2)c1	2	i	0.9	/	8	195	116
Cc1c(C(=O)O)sc2ncnc(N3CCCCC3C)c12 (stereo not given)	-1	i	0.93	-2.9	24	122	99
CCOC(=O)Cc1nn(Cc2nc(-c3ccc(C)cc3)cs2)c(=O)c2ccccc12	/	i	1	/	/	/	100
Cc1ccccc1NC(=O)Nc1ccccc1N1CCCCC1	/	i	0.85	/	/	/	92
Cc1cc(NC(=O)CSc2ccc3nnc(-c4ccc(F)cc4)n3n2)no1	-7	i	0.91	-0.2	/	/	99
Fc1cc(F)cc(NC(=S)NCCCN2CCOCC2)c1	-4	i	1	/	/	/	109
O=C(c1cccc(C(=O)N2CCN(c3ccc(F)cc3)CC2)c1)N1CCN(c2ccc(F)cc2)CC1	-5	i	0.93	-0.2	-25	89	106
COc1cccc(/C=N/NC(=O)CCCc2ccc(OC)c(C)c2)c1	5	i	0.96	0.3	-85	78	54
CCCCN(C)CCNC(=O)Cn1c(=O)sc2ccccc21	-4	i	0.93	/	/	/	103
CN=C1S/C(=C/c2cn(CC(=O)OC)c3ccccc23)C(=O)N1C	/	i	1	/	/	/	103
Cc1ccc(-n2c(CNc3ccc(C)c(Cl)c3)n[nH]c2=S)cc1	-6	i	1	/	/	/	105
CCOC(=O)c1c(C)n(C)c2ccc(OC)c(NC(=O)CN3CCC4(CC3)OCCO4)c12	4	i	0.84	-1.0	/	/	109
CCn1nnnc1NCc1cccc(Cl)c1	2	i	0.87	/	/	/	104
COc1cccc(CN2CCNC(=O)C2CC(=O)NCCCn2ccnc2)c1 (stereo not given)	/	i	1.1	/	/	/	112
COc1ccc2cc(S(=O)(=O)N3CCN(C)CC3)ccc2c1	-7	i	1.3	-1.6	20	113	104
O=C(NC1CCCCC1)N(Cc1ccc(F)cc1)Cc1nc2ccccc2c(=O)[nH]1	-5	i	0.94	-1.5	-32	159	103
O=C(NCC1CCCO1)C1CCN(S(=O)(=O)Cc2ccccc2)CC1 (stereo not given)	11	i	0.66	-0.7	/	/	104
COc1cccc(-c2nc(-c3ccccc3)no2)c1	-2	i	0.9	-1.8	44	130	97
CCOC(=O)N/N=C/c1cn(CCCOc2ccc(C)cc2)c2ccccc12	-9	i	0.98	-2.1	17	58	52
Cc1cccn2c(=O)c3cc(S(=O)(=O)c4ccccc4)c(=N)n(CC4CCCO4)c3nc12 (stereo not given)	/	i	0.9	/	/	/	102
O=C(COC(=O)C1CCN(S(=O)(=O)c2cccs2)CC1)c1ccccc1	-2	i	0.97	/	/	/	98
O=C(COc1ccc(Br)cc1CO)Nc1ccc(F)cc1	-3	i	1.1	-1.9	/	/	100
CN(C)CCCn1c(SCC(=O)N2CC(=O)Nc3ccccc32)nc2ccccc2c1=O	1	i	0.98	/	/	/	102

High-throughput results as filed in PubChem BioAssay.
